Screening results (PubChem BioAssay)
Vif A3G: inhibitors of Vif binding to APOBEC3G peptide, primary screen, biochemical, TR-FRET, GST-Vif 1-94, biotin-A3G peptide, dose response retest (AID 1117319). one-dose inhibition, %; IC50 in µM for titrated hits. TR-FRET GST-Vif / biotin-A3G peptide binding; higher % means a stronger effect; test concentration not given here; strong numbers were not always called active. 0.57% of 260,000 active;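 active = above the screen mean plus three standard deviations and confirmed in dose response; inconclusive = results disagree or hit not tested in dose response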;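 note: Vif residues 1-94 fused to GST binding biotinylated APOBEC3G peptide 110-148; 0% = full assay without inhibitor and 100% = GST in place of GST-Vif; retest series ran down from 100 µM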
Ecoli growth: blocks Escherichia coli growth; AID 1053175; 0.21% of 330,000 active; OD600, 23 h; hits give low values; OD600 absorbance (test concentration not listed);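 active = OD600 absorbance below the run mean of sample wells minus 3.6 SD, in any replicate, cut at about 0.56 in these data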;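 note: stock transfer was 300 nL into about 60 µL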
HNF4A DNA FP: change in binding of human HNF4 alpha to DNA; P41235; HNF4a-FITC DNA binding, fluorescence polarization, 1 h; activity change, % at 10 µM; 0.3% of 360,000 active; AID 1224865; in the data active = activity change above about 30%, passing the limit was not always enough;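 note: controls were the assay level and a saturating level of protein; the project sought stronger binding though the title names inhibitors; some compounds called inactive have numbers as strong as hits; positive values seem to mean higher polarization but the record does not say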
ALR inh: human ALR oxidase inhibition via reduced H2O2; purified ALR, DTT oxidation, H2O2 HRP-luminol luminescence; inhibition, % (concentration not given with the values); 3.8% of 290,000 active;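 active = mean and each replicate at 75% or more; inconclusive = only one of the two met; inactive = neither met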;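 note: stock transfer was 7.5 nL into about 7.5 µL; 0% = neutral wells and 100% = wells with inactivated enzyme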
Target sequence (P55789 whole entry, looked up): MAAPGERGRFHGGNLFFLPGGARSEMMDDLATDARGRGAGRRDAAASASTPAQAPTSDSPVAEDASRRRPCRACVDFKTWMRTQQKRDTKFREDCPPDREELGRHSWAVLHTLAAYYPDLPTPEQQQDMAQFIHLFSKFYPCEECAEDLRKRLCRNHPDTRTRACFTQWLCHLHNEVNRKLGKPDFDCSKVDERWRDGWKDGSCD
MLL AF4-AF9 inh: inhibitors of human MLL-AF4/AF9 interaction; 0.47% of 350,000 active; P42568; AlphaScreen, biotin-AF4 peptide binding to FLAG-AF9; inhibition, % at 10 µM; AID 651704;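 active = every replicate reaching a set inhibition limit, whatever the replicate mean, cut at about 25% in these data; inconclusive = mean inhibition reaches that limit but some replicates miss it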;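 note: 0% = plate neutral control median and 100% = total signal loss; the record names both 10 and 1 µM as test concentration; the first replicate is given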
Target sequence (P42568 whole entry, looked up): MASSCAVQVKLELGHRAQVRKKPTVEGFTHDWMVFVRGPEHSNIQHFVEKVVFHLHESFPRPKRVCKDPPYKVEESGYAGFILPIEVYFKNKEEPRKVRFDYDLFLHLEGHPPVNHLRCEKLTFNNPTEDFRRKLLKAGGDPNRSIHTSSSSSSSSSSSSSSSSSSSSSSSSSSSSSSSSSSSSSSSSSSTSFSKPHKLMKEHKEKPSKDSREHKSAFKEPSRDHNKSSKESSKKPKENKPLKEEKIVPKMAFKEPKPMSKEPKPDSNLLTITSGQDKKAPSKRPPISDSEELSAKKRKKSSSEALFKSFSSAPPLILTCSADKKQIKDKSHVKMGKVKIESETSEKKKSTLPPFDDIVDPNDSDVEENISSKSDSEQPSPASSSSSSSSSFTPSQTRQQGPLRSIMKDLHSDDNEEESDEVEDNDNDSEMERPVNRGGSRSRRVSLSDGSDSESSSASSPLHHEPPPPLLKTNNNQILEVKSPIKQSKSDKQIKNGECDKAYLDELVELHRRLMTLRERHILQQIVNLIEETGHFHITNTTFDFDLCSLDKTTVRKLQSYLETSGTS
FGF22 binding: shifts melting point of recombinant human FGF22; Q9HCT0; recombinant FGF22 thermal shift, SYPRO orange fluorescence; percent of sucrose octasulfate shift, DMSO zero; calls only at 9.99 µM; 1.5% of 340,000 active; AID 651658;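 active = melting point raised past a set limit in the mean and every replicate; inconclusive = no clear call; three in four hits are not shown here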
Target sequence (Q9HCT0 whole entry, looked up): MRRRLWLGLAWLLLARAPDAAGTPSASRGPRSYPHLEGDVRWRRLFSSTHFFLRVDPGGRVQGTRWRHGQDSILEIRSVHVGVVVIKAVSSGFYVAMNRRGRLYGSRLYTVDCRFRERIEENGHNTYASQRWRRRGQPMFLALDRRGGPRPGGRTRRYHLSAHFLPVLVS
Ecoli rRNA inh: selective bacterial rRNA inhibition in E. coli. 1.6% of 350,000 active. GFP signal change (wild-type ribosome), % (test concentration not listed). AID 720706. E. coli WT GFP vs humanized-ribosome RFP mutants, fluorescence, 24 h; hits give low values; DMSO median 0, no signal -100;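 active = significant combined selectivity score with lowered wild-type GFP, culture density cut under 30%, mutant RFP and density less affected; inactive = any of these conditions unmet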; note: one replicate is shown; some compounds called inactive have numbers as strong as hits
Ecoli rRNA inh OD600: recorded beside Ecoli rRNA inh, whose call it bears; OD600 change, %; measured here: OD600 growth;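 optical density of the mix in the first replicate; 0 = DMSO median and -100 = no signal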
Ecoli rRNA inh RFP: further read-out of Ecoli rRNA inh, marked with its call; RFP signal change, %; measured here: RFP humanized mutant strains;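 first replicate; 0 = DMSO median and -100 = no signal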
The depositor's hits bear a star; i = inactive; ? = inconclusive; / = no result given. A portion of the library; count on the stated rates, not on these rows.

| Vif A3G | Ecoli growth | HNF4A DNA FP | ALR inh | MLL AF4-AF9 inh | FGF22 binding | Ecoli rRNA inh | Ecoli rRNA inh OD600 | Ecoli rRNA inh RFP | structure |
| --- | --- | --- | --- | --- | --- | --- | --- | --- | --- |
| 3% | 0.69 | 1.9 | -1 | -1.1 | i | 4 | 5 | 1.8 | COc1cccc(Cn2nnc(C(=O)NCc3ccc4c(c3)OCO4)c2N)c1 |
| / | 0.71 | 0.8 | 0 | -0.7 | i | -6 | -15 | -0.6 | COc1ccc(OC)c(CCNC(=O)CC2(CC3=NS(=O)(=O)c4ccccc4N3)CCCC2)c1 |
| -7% | 0.61 | -1.1 | -2 | -1.5 | i | -8 | -22 | 5.8 | CC1CCCN(C(=O)COC(=O)c2cc(-c3cccs3)nn2-c2ccccc2)C1 (stereo not drawn) |
| 16% | 0.81 | -8.0 | -7 | / | / | / | / | / | C=CCNc1nc(N2CCCCC2)c(C#N)c2c1CN(Cc1ccccc1)CC2 |
| 5% | 0.72 | 3.7 | -6 | / | / | / | / | / | CC1CCN(CCCNC(=O)c2cc3sccc3n2C)CC1 |
| -6% | 0.64 | -0.2 | 47 | 2.7 | i | -45* | -35* | -7.2* | Cc1cc(C(=O)COc2ccc(Cl)cc2Br)c(C)n1C |
| / | 0.68 | -1.4 | / | 2.5 | i | -31 | -36 | -0.5 | COc1ccccc1CC(NC(C)=O)C(=O)NC1CCN(C(=O)Nc2cccc(F)c2)CC1 (stereo not drawn) |
| / | / | -0.1 | 50 | -0.7 | i | -3 | 11 | 11 | COc1ccc(CN(C)Cc2c(O)ccc3ccccc23)cc1 |
| -4% | 0.69 | -1.3 | 5 | 0.3 | i | 3 | 6 | 0.0 | CCOC(=O)C(=CNc1cc(C(F)(F)F)ccc1N1CCOCC1)C(=O)OCC |
| 2% | 0.72 | 0.6 | -11 | / | / | / | / | / | Cc1csc(NC(=O)C2CCCO2)n1 (stereo not drawn) |
| / | 0.7 | -2.0 | / | -0.8 | i | -1 | -8 | -0.7 | O=C(CCC(=O)N1CCN(S(=O)(=O)c2ccc(Cl)cc2)CC1)NCc1cccc(C(F)(F)F)c1 |
| -3% | 0.77 | 3.3 | -5 | / | / | / | / | / | Cc1cccc(-c2noc(CN(C(C)C)S(=O)(=O)c3ccc(F)cc3)n2)c1 |
| / | / | / | / | -4.6 | i | 2 | 2 | -4.0 | C[C@@H]1CN([C@@H](C)CO)S(=O)(=O)c2ccc(C#CC3CC3)cc2O[C@H]1CN(C)C |
| 3% | 0.72 | 1.7 | / | -2.8 | i | 6 | 3 | -0.3 | O=S(=O)(NCc1ccccc1)c1ccccc1NCc1ccc(Cl)cc1 |
| / | 0.62 | 15 | -2 | 4.9 | i | 9 | 14 | -4.3 | COC(=O)Cc1coc2cc(OC)ccc12 |
| 10% | 0.69 | 1.7 | -21 | / | / | / | / | / | COc1cnn(-c2ccccc2)c(=O)c1SCc1ccc(Cl)c(Cl)c1 |
| -6% | / | -0.9 | -9 | -0.6 | i | 4 | -6 | 0.1 | C/C(=N/NC(=O)c1nnn(-c2nonc2N)c1-c1ccccc1)c1ccc2c(c1)OCO2 |
| 5% | 0.65 | 2.1 | / | / | / | / | / | / | CCN(CC)CCOC(=O)c1c(C)n(C)c2ccc(OC)cc12 |
| / | 0.68 | -2.5 | / | -0.1 | i | 1 | -6 | 2.3 | COc1ccc(Cl)cc1NC(=O)CN(C)C(=O)/C=C/c1ccco1 |
| / | / | / | / | -0.6 | i | 1 | -1 | -1.6 | COCCNC(=O)[C@@H]1[C@@H](CO)[C@@H]2Cn3c(ccc(-c4ccccc4)c3=O)[C@H]1N2C(=O)NC(C)C |
| / | / | / | / | 1.6 | i | -8 | -6 | 3.3 | Cc1ccc(S(=O)(=O)N(C)C[C@@H]2Oc3ccc(NS(=O)(=O)c4ccccc4)cc3C(=O)N([C@@H](C)CO)C[C@H]2C)cc1 |
| 5% | 0.69 | 4.4 | 7 | / | / | -40 | -47 | -10 | Cc1csc(SCC(=O)NC23CC4CC(CC(C4)C2)C3)n1 |
| / | / | / | / | 2.6 | i | -9 | -4 | -1.0 | COc1ccccc1NC(=O)Nc1ccc2c(c1)C(=O)N(C)C[C@H](OC)[C@@H](C)CN(C)[C@H](C)CO2 |
| 1% | 0.71 | 2.0 | -20 | -1.3 | / | 14 | 6 | -1.7 | CCOc1ccc(NC(=O)CSc2nc(N)c(-c3ccccc3)c(=O)[nH]2)cc1 |
| / | 0.68 | -4.4 | -4 | -2.3 | i | / | / | / | COc1ccc(C(=O)NC(CCSC)C(=O)NC2CC2)cc1 (stereo not drawn) |
| ? | 0.71 | 2.0 | -12 | -5.5 | i | 7 | 6 | 12 | Nn1c(=O)[nH]c2ccccc2c1=O |
| 2% | 0.64 | -4.4 | 9 | 0.7 | i | 4 | 6 | 1.4 | Cc1ccc(C)n1NC(=O)c1ccccc1[N+](=O)[O-] |
| 5% | 0.7 | 4.7 | 0 | 3.2 | / | 15 | 9 | 2.6 | Cc1cc(C(=O)COC(=O)c2nccnc2N)c(C)n1C |
| / | / | / | / | 0.5 | i | 7 | 3 | -0.2 | CC(C)NC(=O)N(C)C[C@H]1OCCCC[C@@H](C)Oc2ccc(N(C)C)cc2C(=O)N([C@@H](C)CO)C[C@H]1C |
| / | 0.69 | -2.2 | / | -0.1 | i | 0 | 10 | -1.1 | COc1cccc(NC(=O)Nc2cc(C(=O)NC(C)C)ccc2N2CC3CC(C2)c2cccc(=O)n2C3)c1 (stereo not drawn) |
| 24% | 0.6 | -1.0 | 4 | / | / | / | / | / | O=C(Nc1ccc(OC(=O)c2ccco2)cc1)c1ccco1 |
| -2% | / | -2.0 | / | 0.8 | i | 13 | 10 | 5.8 | CCCN1CCN(C(=O)c2ccc(S(=O)(=O)N(C)c3ccccc3OC)cc2)CC1 |
| -8% | 0.64 | 1.9 | 2 | 0.5 | i | 4 | 9 | -0.7 | CCN(CC)S(=O)(=O)c1ccc(C(=O)NCC(=O)NC2CC2)cc1 |
| / | 0.73 | 2.0 | / | 2.3 | i | 10 | 12 | 1.4 | Cc1ccc(NC(=O)COC(=O)c2ccc(-n3cccn3)cc2)cc1C |
| 5% | 0.68 | 0.9 | 98* | -0.4 | / | -27 | -41 | -11 | Cc1ccc(-c2c[nH]c(=S)n2-c2ccccc2F)cc1 |
| 4% | 0.71 | -0.4 | ? | 16 | i | -44 | -70 | -6.7 | Fc1ccc(-c2nc3ccccn3c2NCc2ccc3c(c2)OCO3)cc1 |
| / | / | / | / | -1.2 | i | -2 | -5 | 3.8 | C[C@H]1CN([C@@H](C)CO)S(=O)(=O)c2ccc(C#Cc3cccnc3)cc2O[C@H]1CN(C)CC1CCOCC1 |
| -4% | 0.65 | -5.5 | / | 2.1 | i | 5 | -4 | -0.6 | Cc1cc(C(=O)CN2C(=O)C(=O)N(CC(C)C)C2=O)c(C)n1C1CC1 |
| / | / | / | / | -6.0 | i | 5 | 13 | 1.0 | C[C@@H]1CN([C@@H](C)CO)C(=O)c2cc(N(C)C)ccc2O[C@H]1CN(C)Cc1ccc(C(=O)O)cc1 |
| 1% | 0.7 | -0.2 | / | -1.4 | i | 9 | 3 | 1.9 | COC(=O)c1ccc(CNC(=O)Cn2cnc3c(NCc4ccccc4)ncnc32)cc1 |
| 4% | 0.69 | 2.2 | -2 | -3.5 | i | / | / | / | COc1cccc(CNC(=O)COC(=O)c2c(C)nn(-c3ccccc3)c2Cl)c1 |
| 5% | 0.8 | 2.0 | -2 | / | / | / | / | / | CCOc1ccc(NC(=O)CSc2nnc(Cn3cnc4ccccc43)n2C)cc1 |
| 3% | 0.79 | 2.0 | / | / | / | / | / | / | CCn1c(CNC(=O)c2ccc(OC)c(OC)c2)nnc1SCC(=O)c1ccc(OC)cc1 |
| / | 0.66 | 0.5 | -7 | 3.1 | i | / | / | / | COc1ccccc1CNC(=O)CN1c2cccc3cccc(c23)S1(=O)=O |
| -9% | 0.68 | -2.6 | / | 0.3 | i | 7 | 8 | -2.9 | CCOc1ccc(OCC(=O)NCc2n[nH]c(=O)c3ccccc23)cc1 |
| -8% | / | 2.1 | / | 16 | i | 16 | 17 | -0.2 | CC(=O)NC1C(=O)N(CCN2CCOCC2)c2ccc(Br)cc21 (stereo not drawn) |
| 3% | 0.71 | -2.3 | -1 | / | / | / | / | / | COCCn1c(SCC(=O)N2CCc3ccccc3C2)nc2cc(Cl)ccc2c1=O |
| / | 0.65 | -1.2 | -10 | -1.1 | i | 5 | 11 | -2.0 | CCC1CCCCN1C(=O)Cn1nc([N+](=O)[O-])c(Cl)c1C (stereo not drawn) |

Structures listed so far marked active in ALR inh:
| Vif A3G | Ecoli growth | HNF4A DNA FP | ALR inh | MLL AF4-AF9 inh | FGF22 binding | Ecoli rRNA inh | Ecoli rRNA inh OD600 | Ecoli rRNA inh RFP | structure |
| --- | --- | --- | --- | --- | --- | --- | --- | --- | --- |
| 5% | 0.68 | 0.9 | 98* | -0.4 | / | -27 | -41 | -11 | Cc1ccc(-c2c[nH]c(=S)n2-c2ccccc2F)cc1 |

Continuation:
| Vif A3G | Ecoli growth | HNF4A DNA FP | ALR inh | MLL AF4-AF9 inh | FGF22 binding | Ecoli rRNA inh | Ecoli rRNA inh OD600 | Ecoli rRNA inh RFP | structure |
| --- | --- | --- | --- | --- | --- | --- | --- | --- | --- |
| / | / | / | / | -4.7 | i | 0 | 7 | -0.5 | CC(C)C#Cc1cnc2c(c1)C(=O)N([C@H](C)CO)C[C@H](C)[C@H](CN(C)C(=O)Nc1ccccc1F)O2 |
| / | / | / | / | -0.8 | i | 8 | 12 | -0.7 | Cc1cc(C(=O)Nc2cccc3c2O[C@@H](CN(C)S(C)(=O)=O)[C@H](C)CN([C@H](C)CO)C3=O)n(C)n1 |
| / | 0.71 | -1.3 | 99* | 17 | i | 1 | -4 | 3.0 | CCN(c1ccc(NC(=O)c2cccc(S(=O)(=O)N3CCN(C)CC3)c2)cc1)C(C)C |
| -1% | / | -4.8 | 7 | -0.5 | i | -18* | -6.0* | 5.5* | O=C(CSc1nc(C2CCCCC2)nc2ccccc12)N1CCCC1 |
| / | 0.65 | -4.6 | -1 | / | i | -21 | -7 | -2.8 | CC1(C)CCC[C@]2(C)C(CS(=O)c3ccccc3)=C(C=O)CC[C@@H]12 (stereo partly drawn) |
| / | / | 0.4 | 9 | 3.3 | i | 13 | 15 | 0.8 | Cc1ccc(NC(=O)C2C3C=CC(O3)C2C(=O)O)c(C)c1 (stereo not drawn) |
| / | / | / | / | -3.0 | i | 2 | -11 | 13 | O=C(C[C@H]1CC[C@H]2[C@@H](COC[C@H](O)CN2S(=O)(=O)c2ccccc2)O1)Nc1ccc(-c2ccccc2)cc1 |
| / | 0.7 | -0.6 | -3 | -0.8 | i | -3 | -4 | 0.7 | CC(CCc1ccccc1)NC(=O)C1CCC1 (stereo not drawn) |
| -1% | 0.7 | 1.8 | -8 | / | / | / | / | / | Cc1cc(C)c(C#N)c(Nc2ccccc2Cl)n1 |
| -2% | 0.71 | -3.0 | 40 | 10.0 | i | 17 | 10 | 3.6 | c1ccc2c3c(cc(N4CCOCC4)c2c1)OC1(N2CCOCC2)CCCCC1O3 (stereo not drawn) |
| -2% | 0.64 | 2.3 | 3 | 0.2 | i | 5 | 7 | 5.4 | COc1ccc(CCC(=O)NC(C)c2ccccc2)cc1OC (stereo not drawn) |
| 3% | / | 2.7 | / | 0.6 | i | -3 | 6 | 2.3 | COc1cc(NC(=O)CSc2nc3[nH]ncc3c(=O)n2-c2ccccc2)cc(OC)c1OC |
| 0% | 0.72 | 1.3 | -3 | -0.7 | i | 0 | -15 | -4.0 | CCc1nnc(NC(=O)CSc2nnc(-c3ccco3)n2C)s1 |
